Env fusion inh – inhibitors of HIV Env-mediated cell fusion | inhibition, % at 12.3 µM | actives 1.1% (n = 360,000) | HeLa-JRFL Env/CEM21 cell fusion, luciferase;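 active = mean replicate inhibition score of at least 50 and every replicate individually at or above 50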;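 note: 0% = plate neutral controls and 100% = maraviroc near 300 nM; one replicate is shown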
MT1-MMP act inh – blocks activation of human MT1-MMP. P50281. HT1080 RFP-PRO-GFP cells, GFP/RFP ratio fluorescence, overnight; percent of plate control window, DMSO zero. GFP/RFP ratio change, % at 20 µM. actives 0.061% (n = 360,000). AID 651647;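 active = GFP/RFP ratio change of at least 30% with cell ATP level not reduced by more than half and red fluorescence within 50% of control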; note: strong numbers were not always called active
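system = RFP-PRO-GFP reporter HT1080 cells | dosing = 20 µM single dose, 1% DMSO | timing = overnight cell settling, then overnight compound exposure, 37 °C, 5% CO2 | read-out basis = GFP/RFP fluorescence ratio | controls = DMSO and RFP-L50D-GFP cell wells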
MT1-MMP act inh RFP – also measured in MT1-MMP act inh; calls as there; RFP signal change, %; measured here: RFP expression control read;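 0 = vehicle wells; hits needed this value within 50% of zero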
* marks the source's active call; other numbers are inactive results; nt = no result given; [ ] = dose if it differs, or a comment. Some of the compounds tested; rates above refer to the full screens.

SMILES	Env fusion inh	MT1-MMP act inh	others
C=CCNc1cccc2c1S(=O)(=O)N[C@H](C)CO2	-10	nt
C[C@H](CO)N1C[C@H](C)[C@H](CN(C)Cc2ccc(C(F)(F)F)cc2)Oc2ccc(NC(=O)Cc3ccccc3)cc2CC1=O	8[16.7 µM]	nt
COC(=O)[C@]12C[C@H](CC(=O)NCc3ccc(OC)c(OC)c3)C(=O)N(Cc3ccc4c(c3)OCO4)C1=C[C@H](COCc1ccccc1)O[C@@H]2C	-17	nt
CO[C@@H]1CN(C)C(=O)c2ccc(NS(=O)(=O)c3ccc(Oc4ccccc4)cc3)cc2OC[C@H](C)NC[C@H]1C	29[16.7 µM]	nt
CO[C@H]1CN(C)C(=O)c2cc(NC(C)=O)ccc2OC[C@H](C)N(CC2CCCCC2)C[C@@H]1C	-17[16.7 µM]	nt
CC(C)(C)S(=O)N1Cc2cc(C(=O)NCCCN3CCOCC3)nc(-c3cccc(-c4cccc(F)c4)c3)c2[C@H]1CCO (stereo partly specified)	-7[16.7 µM]	nt
COC(=O)C1=C(C)N(Cc2ccccc2C(F)(F)F)C(=NCc2cc(OC)c(OC)c(OC)c2)NC1CCc1ccccc1 (stereo unspecified)	-61	nt
C[C@@H]1CN([C@H](C)CO)C(=O)c2c(c3ccccc3n2C)-c2ccccc2CO[C@@H]1CN(C)S(=O)(=O)CC(F)(F)F	-9[16.7 µM]	nt
C[C@H]1[C@@H](c2ccccc2)Oc2c(Cl)cccc2S(=O)(=O)N1C	36	nt
CO[C@@H]1CC[C@H]2CCOc3c(C#N)cccc3C(=O)N(C)C[C@H](c3ccccc3)CC(=O)N(C)C[C@H]1O2	17[16.7 µM]	nt
CCCC#Cc1ccc2c(c1)O[C@H](CN(C)C(=O)Nc1ccccc1F)[C@H](C)CN([C@@H](C)CO)S2(=O)=O	-63[16.7 µM]	nt
CO[C@@H]1CN(C)C(=O)c2ccc(NC(=O)C3CCCCC3)cc2OC[C@@H](C)N(Cc2cccnc2)C[C@H]1C	-4[16.7 µM]	nt
CCCC(=O)Nc1ccc2c(c1)OC[C@@H](C)N(Cc1ccc(F)cc1)C[C@H](C)[C@@H](OC)CN(C)C2=O	3[16.7 µM]	nt
C[C@H]1CN([C@@H](C)CO)C(=O)c2cc(NC(=O)C3CC3)ccc2O[C@@H]1CN(C)C	17[16.7 µM]	nt
O=C(NCc1ccccc1)[C@@H]1CCCN1C(=O)[C@H]1CCCN1C(=O)c1ccccc1F	3	nt
CO[C@H]1CN(C)C(=O)c2cc(NS(C)(=O)=O)ccc2OC[C@H](C)N(C)C[C@@H]1C	-2[16.7 µM]	nt
CC(C)(C)S(=O)N1Cc2cc(C(=O)NCCCN3CCOCC3)nc(-c3cccc(C#CCC4CCCC4)c3)c2[C@@H]1CCO (stereo partly specified)	22[16.7 µM]	nt
Cc1ccc(S(=O)(=O)N(C)C[C@@H]2Oc3ccc(NC(=O)Nc4cccc5ccccc45)cc3C(=O)N([C@@H](C)CO)C[C@H]2C)cc1	-10[16.7 µM]	nt
COc1ccc(CNC(=O)C[C@H]2CC[C@@H]3[C@@H](COc4ccc(NC(=O)C(C)C)cc4C(=O)N3C)O2)cc1	-10[16.7 µM]	nt
CO[C@@H]1CN(C)C(=O)c2cccc(C#N)c2OC[C@H]2O[C@@H](CC[C@H]2OC)CCN(C)C(=O)[C@H]1C	-11[16.7 µM]	nt
Cc1noc(C)c1NC(=O)Nc1ccc2c(c1)CC(=O)N([C@H](C)CO)C[C@@H](C)[C@@H](CN(C)Cc1ccc3c(c1)OCO3)O2	-37[16.7 µM]	nt
CCCC(=O)N1CC2(CN(C(=O)Nc3cccc(F)c3)C2)c2c(n(C)c3cc(OC)ccc23)[C@H]1CO	-23[16.7 µM]	nt
CCCNC(=O)Nc1ccc2c(c1)C(=O)N(C)C[C@@H](OC)[C@H](C)CN(S(C)(=O)=O)[C@@H](C)CO2	-36[16.7 µM]	nt
O=C(N[C@H](Cc1ccccc1)C(=O)NCc1ccc(OC(F)(F)F)cc1)[C@H]1O[C@@H](n2ccc(=O)[nH]c2=O)[C@H](O)[C@@H]1O	-10	nt
COc1ccccc1-c1ccc([C@@H]2C[C@H]3[C@H](CON3C)CN2S(=O)(=O)c2cc(Cl)cc(Cl)c2)cc1	-57	nt
(listing goes on)
SMILES	Env fusion inh	MT1-MMP act inh	others
O=C(N[C@@H](Cc1cccnc1)C(=O)N1CCC[C@H]1C(=O)NC1CCCC1)C1CC1	0	nt
O=C([C@H]1[C@H](CO)[C@H]2Cn3c(cccc3=O)[C@@H]1N2C(=O)c1ccccn1)N1CCCCC1	20[16.7 µM]	nt
C[C@H](CO)N1C[C@H](C)[C@H](CN(C)C(=O)Nc2cccc3ccccc23)Oc2ccc(NS(C)(=O)=O)cc2C1=O	-12[16.7 µM]	nt
CC(C)(C)S(=O)N1C[C@H]2CC(=O)C(CCO)=C2[C@@H]1CCO (stereo partly specified)	-36	nt
CCC(=O)Nc1ccc2c(c1)C(=O)N(C)C[C@@H](OC)[C@H](C)CN(Cc1ccncc1)[C@H](C)CO2	-5[16.7 µM]	nt
COc1cccc(NC(=O)N(C)C[C@@H]2OCc3ccccc3-c3c(n(C)c4ccccc34)C(=O)N([C@H](C)CO)C[C@H]2C)c1	-19[16.7 µM]	nt
CC(=O)N(C)C[C@@H]1Oc2cc(C3=CCCCC3)ccc2S(=O)(=O)N([C@H](C)CO)C[C@@H]1C	6[16.7 µM]	nt
O=C(C[C@@H]1CC[C@@H]2NC[C@H](O)COC[C@H]2O1)N1CCc2ccccc2C1	-4[16.7 µM]	nt
COc1cccc(-c2cnc3c(c2)C(=O)N([C@@H](C)CO)C[C@@H](C)[C@H](CN(C)CC2CCCC2)O3)c1	-12[16.7 µM]	nt
CCN1[C@@H]2c3ccc(-c4ccc(F)cc4)c(=O)n3C[C@@H]2[C@@H](CO)[C@@H]1C(=O)NCCc1cn(C)cn1	-5[16.7 µM]	nt
C[C@@H]1CN([C@H](C)CO)C(=O)c2cc(NC(=O)c3ccccc3)ccc2O[C@@H](C)CCCCO[C@H]1CN(C)S(C)(=O)=O	-6[16.7 µM]	nt
CO[C@@H]1CN(C)C(=O)c2ccc(NS(=O)(=O)c3cn(C)cn3)cc2OC[C@@H](C)NC[C@H]1C	1[16.7 µM]	nt
CCNC(=O)[C@@H]1[C@@H](CO)[C@@H]2Cn3c(ccc(-c4ccc(F)cc4)c3=O)[C@H]1N2C(=O)c1ccccn1	4[16.7 µM]	nt
O=C(O)[C@@H]1[C@@H](CO)[C@@H]2Cn3c(ccc(-c4cncnc4)c3=O)[C@@H]2N1C(=O)C1CCCCC1	5[16.7 µM]	nt
COc1cccc(CN2CC3(CCN(CC4CC4)CC3)c3c([nH]c4cc(OC)ccc34)[C@H]2CO)c1	-24[16.7 µM]	nt
CC(C)NC(=O)N(C)C[C@H]1OCCCC[C@H](C)Oc2ccc(NC(=O)C3CCCCC3)cc2C(=O)N([C@@H](C)CO)C[C@H]1C	18[16.7 µM]	nt
CCOC(=O)[C@H](Cc1c[nH]c2ccccc12)NC(=O)CN=[N+]=[N-]	-6[16.7 µM]	nt
O=C(O)C[C@H]1CC[C@@H]2[C@H](COC[C@@H](O)CN2S(=O)(=O)c2ccc(Oc3ccccc3)cc2)O1	10[16.7 µM]	nt
C[C@H](CO)N1C[C@H](C)[C@H](CN(C)Cc2ccc(F)cc2)OCc2ccccc2-c2ccccc2C1=O	57*[16.7 µM]	nt
COCCNC(=O)C[C@H]1CC[C@H]2[C@@H](COC[C@H](O)CN2C(=O)c2cc(Cl)cc(Cl)c2)O1	-42[16.7 µM]	nt
C#CCNC(=O)C[C@H]1C[C@@]2(C(=O)OC)C(=C[C@H](C(C)(C)C)O[C@@H]2C)N(CCCCCCCC)C1=O	2	nt
C[C@@H]1CCCCO[C@@H](CN(C)C(=O)CCCN(C)C)[C@H](C)CN([C@@H](C)CO)C(=O)c2cc(N(C)C)ccc2O1	4[16.7 µM]	nt
C[C@@H]1CN([C@@H](C)CO)C(=O)c2cccc(NC(=O)c3cnccn3)c2O[C@H]1CN(C)S(=O)(=O)c1ccccc1	0[16.7 µM]	nt
COc1cccc(S(=O)(=O)N2CC3(CN[C@H](CO)c4[nH]c5cc(OC)ccc5c43)C2)c1	1[16.7 µM]	nt
COc1ccccc1NC(=O)N1C[C@H](O)COC[C@H]2O[C@H](CC(=O)NCc3ccccc3)CC[C@@H]21	-1[16.7 µM]	nt
Remaining list, next part.
SMILES	Env fusion inh	MT1-MMP act inh	others
C[C@@H]1CCCCO[C@H](CN(C)C(=O)Cc2ccccc2)[C@H](C)CN([C@@H](C)CO)C(=O)c2cc(NS(C)(=O)=O)ccc2O1	4[16.7 µM]	nt
COCC(=O)N[C@@H]1C=C[C@@H](CC(=O)N2CCCCC2)O[C@H]1CO	24[16.7 µM]	nt
C/C=C/c1ccc([C@@H]2[C@@H](CO)N(C(=O)C3CCC3)C23CN(S(=O)(=O)CC)C3)cc1	19[16.7 µM]	nt
CCCNC(=O)N(C)C[C@@H]1Oc2ncc(-c3ccccc3F)cc2C(=O)N([C@@H](C)CO)C[C@@H]1C	4[16.7 µM]	nt
C[C@@H]1COc2cccc(NCCO)c2S(=O)(=O)N1	-29	nt
CN1C(=O)c2cc(NS(=O)(=O)c3ccccc3F)ccc2OC[C@@H]2O[C@H](CC(=O)NC3Cc4ccccc4C3)CC[C@H]21	-2[16.7 µM]	nt
CCS(=O)(=O)Nc1ccc2c(c1)C(=O)N(C)C[C@H](OC)[C@H](C)CN(Cc1ccccn1)[C@@H](C)CO2	-4[16.7 µM]	nt
C[C@H](CO)N1C[C@H](C)[C@H](CN(C)C(=O)NC2CCCCC2)Oc2ccc(N(C)C)cc2C1=O	-9[16.7 µM]	nt
COc1ccccc1NC(=O)N[C@H]1CC[C@H](CCn2cc(C3(O)CCCC3)nn2)O[C@H]1CO	-3[16.7 µM]	nt
CCS(=O)(=O)N1CC2(C1)[C@@H](c1ccccc1)[C@H](CO)N2C(=O)C1CCCC1	-16[16.7 µM]	nt
CN1c2ccc(-c3cccc(F)c3)cc2[C@H]2[C@H](CCN2C(=O)c2cccc(F)c2)[C@H]1CO	24[16.7 µM]	nt
CO[C@H]1CC[C@H]2CCOc3c(C#N)cccc3C(=O)N(C)C[C@@H](c3ccccc3)CC(=O)N(C)C[C@@H]1O2	-13[16.7 µM]	nt
C[C@H]1CN([C@@H](C)CO)C(=O)Cc2cc(NC(=O)Nc3ccccc3)ccc2O[C@H]1CN(C)Cc1ccncc1	21[16.7 µM]	nt
O=C(CN1C(=O)c2ccccc2C1=O)C(O)CN1C(=O)c2ccccc2C1=O (stereo unspecified)	nt	3	MT1-MMP act inh RFP=3
OCCN(Cc1ccccn1)Cc1ccccn1	nt	3	MT1-MMP act inh RFP=10
Cc1ccc(NC(=O)NC2OC(=O)c3ccccc32)cc1 (stereo unspecified)	nt	3	MT1-MMP act inh RFP=4
COc1ccc(OC)c(NC(=O)COC(=O)CN2C(=O)NC3(CCCC3)C2=O)c1	nt	-1	MT1-MMP act inh RFP=2
CN(CCC#N)c1ccc(C=C(C#N)c2cccc(C(F)(F)F)c2)cc1	nt	1	MT1-MMP act inh RFP=-9
CN(C)Cc1c(OC(=O)c2ccc(N)cc2)ccc2ccccc12	nt	4	MT1-MMP act inh RFP=5
O=C(COC(=O)c1c[nH]c2ccccc12)Nc1ccc([N+](=O)[O-])cc1	nt	-3	MT1-MMP act inh RFP=3
COC(=O)c1sccc1NS(=O)(=O)c1ccccc1[N+](=O)[O-]	nt	2	MT1-MMP act inh RFP=7
Cc1ccc[n+](C(C(=S)NCc2ccco2)=C([O-])c2ccccc2Cl)c1	nt	2	MT1-MMP act inh RFP=6
CC1(c2ccccc2)CC(c2ccccc2)=C(C#N)C(=O)N1 (stereo unspecified)	nt	-1	MT1-MMP act inh RFP=0
Cc1cc(C)nc(NS(=O)(=O)c2ccc(NC(=O)COc3ccccc3F)cc2)n1	nt	0	MT1-MMP act inh RFP=3
CCOC(=O)Nc1ccc(OC(=O)Oc2ccc(NC(=O)OCC)cc2)cc1	nt	-1	MT1-MMP act inh RFP=-5
O=C(COC(=O)CCC(=O)c1cccs1)NC1CCCCC1	nt	2	MT1-MMP act inh RFP=9
CCC(C)C(N=C1NS(=O)(=O)c2ccccc21)C(=O)N1CCC(C)CC1 (stereo unspecified)	nt	4	MT1-MMP act inh RFP=-1
COc1cc(NC(=O)COC(=O)CNC(=O)C2CCCCC2)cc(OC)c1	nt	2	MT1-MMP act inh RFP=5
N#CC1=C(Nc2ccccc2Cl)SC2(CCCC2)NC1=O	nt	2	MT1-MMP act inh RFP=2

Arranged by length of the SMILES (descending): some entries from above.
SMILES	Env fusion inh	MT1-MMP act inh	others
C#CCNC(=O)C[C@H]1C[C@@]2(C(=O)OC)C(=C[C@H](C(C)(C)C)O[C@@H]2C)N(CCCCCCCC)C1=O	2	nt
O=C(O)[C@@H]1[C@@H](CO)[C@@H]2Cn3c(ccc(-c4cncnc4)c3=O)[C@@H]2N1C(=O)C1CCCCC1	5[16.7 µM]	nt
O=C([C@H]1[C@H](CO)[C@H]2Cn3c(cccc3=O)[C@@H]1N2C(=O)c1ccccn1)N1CCCCC1	20[16.7 µM]	nt
O=C(NCc1ccccc1)[C@@H]1CCCN1C(=O)[C@H]1CCCN1C(=O)c1ccccc1F	3	nt
O=C(COC(=O)c1c[nH]c2ccccc12)Nc1ccc([N+](=O)[O-])cc1	nt	-3	MT1-MMP act inh RFP=3
COCC(=O)N[C@@H]1C=C[C@@H](CC(=O)N2CCCCC2)O[C@H]1CO	24[16.7 µM]	nt
